gsp antagonist = gsp mutant antagonism; gsp-mutant cells, cAMP HTRF, 30 min; control for the full effect not named in the record; Potency, µM (doses to about 76.9 µM), for inactives: top-dose activity change, negative = inhibition, hits mostly inhibitors; 340,000 compounds, 0.4% hits; active = falling curve of any shape with a large fitted effect; inconclusive = falling curve, mostly with a smaller effect; inactive = flat or rising curve; cell line not stated here;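 also: intracellular cAMP measured with PDE inhibitor Ro 20-1724 present during compound exposure; potency is read from the fitted curve at half-maximal effect; % is scaled to controls: 0 for no effect and ±100 for the full control effect; nearly all actives have a fitted effect of over 65% in size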
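HTRF cAMP read-out (cAMP-d2 plus anti-cAMP antibody-K in lysis buffer, 30 min RT). Before lysis, cells are exposed to compounds with […] for 30 min at 37C in DPBS containing Ca/Mg, BSA and Tween 20.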
gsp ag = gsp mutant agonism | gsp mutant cells, cAMP HTRF, 30 min; control for the full effect not named in the record | AID 624287 | Potency, µM (series often up to 76.9 µM), inactives show at the highest dose activation (cAMP increase), actives largely listed as activators | 340,000 compounds, 0.13% hits; active = well fitted activation curve with a large enough effect; inconclusive = small, poorly fitted or top-dose-only effect, or another doubt; inactive = no such curve, though single readings can be large or run the other way; cell line not stated here;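 also: phosphodiesterase inhibitor Ro 20-1724 added with compounds to block cAMP breakdown; potency is read from the fitted curve at half-maximal effect; nearly all actives have a fitted effect of over 60% in size; about a fifth of the inactives were tested at one dose only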
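Cells in DMEM/10% FBS with G418 were pretreated with compounds in DMSO plus […] (300 uM stock) for 30 min at 37C. cAMP was measured by HTRF (cAMP-d2 plus anti-cAMP antibody-K) after 30 min at room temperature.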
TRPML1 agonist = agonists of human TRPML1 channel | Q9GZU1 | TRPML1-expressing cells, Ca2+ dye fluorescence, FDSS; host cell line not named in the record; reference of the full effect not given here | activation, % (no concentration beside the values) | 410,000 compounds, 0.12% hits | AID 624414; in the data active = activation above about 50%; inconclusive = about 30% to 50%; inactive = below about 30%; also: 0% is about no effect; the text of the record puts the active cut at 80%
Target sequence (Q9GZU1 whole entry, looked up): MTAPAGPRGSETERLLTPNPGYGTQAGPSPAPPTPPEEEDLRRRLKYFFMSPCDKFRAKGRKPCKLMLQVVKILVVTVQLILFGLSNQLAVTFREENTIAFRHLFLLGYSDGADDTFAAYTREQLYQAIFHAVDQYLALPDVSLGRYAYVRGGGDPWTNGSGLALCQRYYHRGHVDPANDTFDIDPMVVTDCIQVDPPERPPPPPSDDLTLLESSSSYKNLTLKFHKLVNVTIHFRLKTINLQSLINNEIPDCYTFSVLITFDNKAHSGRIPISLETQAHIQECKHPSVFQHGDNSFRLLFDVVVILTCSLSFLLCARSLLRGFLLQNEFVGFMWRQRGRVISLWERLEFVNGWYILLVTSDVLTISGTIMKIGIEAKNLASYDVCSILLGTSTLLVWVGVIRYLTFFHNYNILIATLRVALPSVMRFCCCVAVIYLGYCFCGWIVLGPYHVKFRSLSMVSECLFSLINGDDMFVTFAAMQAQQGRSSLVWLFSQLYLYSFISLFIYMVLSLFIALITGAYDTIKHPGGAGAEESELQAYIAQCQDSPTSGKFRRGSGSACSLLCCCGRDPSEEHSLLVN
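Calcium fluorescence on an FDSS kinetic reader gave the read-out. Tet-induced TRPML1-DL cells were plated overnight, dye-loaded (Ca8 with quencher, 45-90 min, room temperature, dark), then read 110 s after compound addition, and again 110 s after 4uM final 54-4 (EC80).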
Menin MLL FP FL = displaces fluorescein MLL peptide from human menin; AID 1766; Fluorescence polarization, fluorescein-MLL peptide displacement from menin; FP activity change, % at 61.4 µM; 290,000 tested, under 10 active; inconclusive = falling polarisation curve, or a change in total fluorescence; inactive = total fluorescence flat and polarisation flat or rising; no compound was filed as active; the % refers to the polarisation; negative = inhibition;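 also: % of control where 0% means no effect; inhibitors lower the polarisation; unlabelled MLL peptide was the positive control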
TRPML1 inh = blocks the human TRPML1 channel; TRPML1-inducible cells, Ca2+ dye fluorescence, FDSS; active compounds read low; inhibition of EC80 agonist-evoked calcium signal; 390,000 compounds, 0.02% hits; AID 624415; activity change, negative = inhibition, % (test concentration not listed); in the data active means activity change below about -50%; inconclusive means about -30% to -50%; inactive means above about -30%;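 also: stimulus is agonist 54-4 at its EC80 concentration; % is scaled to controls: 0 for no effect and ±100 for the full control effect; compound concentration not given in the record; the text of the record puts the active cut at -80%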
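Calcium fluorescence in TRPML1-DL cells induced overnight with Tet: a 110 s read after compound pin addition, then a 110 s antagonist read after challenge with 54-4 at 4 uM final (EC80).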
ClpP mod = qHTS Assay for Activators of ClpP | 340,000 compounds, 1.9% hits | Potency, µM (doses to about 57.5 µM), without a hit: at the highest dose activity change, negative = active | purified B. subtilis ClpP, FRET peptide cleavage, 20 min | ATP-dependent Clp protease proteolytic subunit (Bacillus subtilis (strain 168)), P80244 | AID 651965, 2013; active = well fitted falling curve with a large enough effect; inconclusive = small, poorly fitted or top-dose-only effect; inactive = no such curve, though single readings can be large or run the other way; also: potency is read from the fitted curve at half-maximal effect; the source files actives as falling curves though it sought activators and does not explain the sign; nearly all actives have a fitted effect of over 65% in size; many hits overshoot -100%
Target sequence (P80244 whole entry, looked up): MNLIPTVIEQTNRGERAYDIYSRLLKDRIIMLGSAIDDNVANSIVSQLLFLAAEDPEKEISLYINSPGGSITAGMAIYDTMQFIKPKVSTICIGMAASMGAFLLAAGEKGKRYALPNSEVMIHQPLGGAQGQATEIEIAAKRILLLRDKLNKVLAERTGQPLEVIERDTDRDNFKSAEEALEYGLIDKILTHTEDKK
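Purified B. subtilis ClpP, 10 microg/mL final in Tris/HCl pH8 with KCl, BSA, glycerol and Tween-20, cleaved an Abz/nitrotyrosine-quenched decapeptide. Fluorescence (ex 320, em 430) was read at 0 and 20 min at room temperature. Delta was normalized to 5.8 microM ADEP and DMSO/no-enzyme controls.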
* hit, by the source's call; ? = inconclusive; nt = no result given; [ ] = remark or other dose.

SMILES | gsp antagonist | gsp ag | TRPML1 agonist | Menin MLL FP FL | TRPML1 inh | ClpP mod
CCOC(=O)c1cc(-c2ccccc2)n(Cc2cc(CC)no2)n1 | -23% | -1% | 0.6 | nt | 2 | -1.0%
CCc1ccccc1NC(=O)COc1cccc2ccc(C)nc12 | -4% | 10%[15.4 µM] | -0.7 | nt | 0 | -3.4%
Cc1cccc(-n2c(O)c(C=Nc3ccc4c(c3)OCO4)c3ccccc3c2=O)n1 | -16% | -13% | 0.5 | -27 | -4 | 2.1%
COC(=O)c1cn(CC(=O)Nc2ccc(OC)cc2)c2ccccc12 | -2% | ? | 0.0 | 5.4 | 3 | 0.4%
O=C(Nc1nncs1)c1ccc(S(=O)(=O)c2ccccc2)cc1 | -5% | -11% | -0.3 | -1.3 | -11 | -2.2%
Cc1cccc(CC(=O)NC2CCN(C)CC2)c1 | 6% | -47%[inhibitor] | 0.1 | 2.0 | -8 | -0.8%
Cc1cc(=O)c(C(=O)O)c(C)n1-c1ccccc1 | 6% | -12%[15.4 µM] | 0.1 | nt | -1 | 0.1%
CCN(CC)CCNCC(=O)Nc1ccc(Oc2ccccc2)cc1 | -7% | 11% | 0.6 | 2.3 | -8 | -3.9%
CC(CNC(=O)c1cc2cc(S(=O)(=O)N3CCCCC3)ccc2n1C)c1ccccc1 (configuration not stated) | nt | nt | 3.0 | nt | 16 | ?
O=C(NCc1ccccn1)c1cccc(NS(=O)(=O)c2ccc(Br)cc2)c1 | -7% | -22% | 1.1 | nt | -5 | -3.1%
CC(C)COC(=O)n1c(=O)oc2ccc(S(=O)(=O)N3CCCCC3)cc21 | -13% | 23%[15.4 µM] | 1.3 | 3.7 | 9 | nt
Cc1ccc(CSc2nc3cccnc3n2Cc2ccc(C(=O)NC3CCCCC3)cc2)cc1 | nt | nt | 2.4 | nt | 24 | 4.8%
Cc1ccc(S(=O)(=O)N2CC(O)C2)cc1 | 8% | -48%[inhibitor] | -0.2 | nt | 9 | 1.6%
CCOC(=O)c1ccc(S(=O)(=O)NNS(=O)(=O)c2ccc(C)cc2)cc1 | -10% | -16% | 0.4 | -4.6 | -12 | -1.7%
CCOCCCNC(=O)C(NC(=O)Cc1cccs1)c1ccc(C)cc1 (configuration not stated) | 8% | -19%[15.4 µM] | -0.9 | 0.4 | -1 | nt
COCCN(CC(=O)Nc1cccc(C)c1C)C(=O)/C=C/c1ccc2c(c1)OCCO2 | nt | -15% | -0.1 | nt | -5 | ?
COc1ccc(NC(=O)c2ccc(NC(=O)CSc3nc(N)cc(=O)[nH]3)cc2)cc1 | 7% | -14% | -0.1 | nt | -13 | 4.7%
CC(CNC(=O)CCn1ccc2cc(S(=O)(=O)N3CCCC3)ccc21)c1ccccc1 (configuration not stated) | -6% | 5% | -0.6 | -0.4 | 4 | 2.1%
NS(=O)(=O)c1ccc(NC(=O)COC(=O)COc2ccc(Cl)cc2)cc1 | -9% | -3%[15.4 µM] | 1.9 | 5.2 | 4 | nt
CCOC(=O)N(C)C[C@H]1OCc2cnnn2CCCC(=O)N([C@@H](C)CO)C[C@H]1C | nt | ? | -0.5 | nt | -6 | -0.7%
CCOC(=O)CSc1nc2ccccc2c(=O)n1CC | -23% | -3% | 1.2 | 0.4 | 10 | -3.8%
CCn1c(C)c(C(C)=O)c(N2CCN(c3ccccc3)CC2)nc1=S | -12% | 21% | 3.4 | ? | -10 | 0.5%
COc1nc2ccccc2nc1N1CCN(c2ccc(F)cc2)CC1 | -9% | ? | 2.2 | -0.6 | -5 | ?
CN(C)S(=O)(=O)c1ccc(C(=O)OCCc2ccccc2)cc1 | nt | -8%[15.4 µM] | 1.7 | -2.6 | 25 | nt
Cn1cc([N+](=O)[O-])c(C(=O)N/N=C\c2c[nH]c3ccccc23)n1 | 6% | -2% | -0.1 | 2.8 | 2 | nt

New compounds follow
SMILES | gsp antagonist | gsp ag | TRPML1 agonist | Menin MLL FP FL | TRPML1 inh | ClpP mod
O=C(NCCN1CCCCC1)c1cc(Cl)ccc1Cl | -9% | 22%[15.4 µM] | -0.9 | -0.2 | -16 | -0.5%
CCOc1ccc(-c2nnn(CC(=O)N3CCCC3)n2)cc1OCC | 9% | -16% | -0.1 | 3.5 | 14 | -0.7%
O=C(c1cc(-c2cccs2)nn1-c1ccccc1)N1CCN(S(=O)(=O)c2ccccc2)CC1 | -15% | -6%[15.4 µM] | 2.4 | nt | -2 | nt
CC(=O)N1CCCc2cc(S(=O)(=O)NCc3ccc(C)cc3)ccc21 | 3% | -25% | -1.1 | 1.3 | -10 | -0.8%
Cc1ccc(OCc2nnc(SCC(=O)Nc3ccc(N4CCOCC4)cc3)o2)cc1 | 6% | -6%[15.4 µM] | -0.7 | -0.3 | 10 | 0.8%
CC(CNS(=O)(=O)c1ccc2c(c1)NC(=O)CCS2)c1ccccc1 (configuration not stated) | 2% | 13% | -0.7 | nt | -25 | 0.2%
O=C(NCCCN1CCOCC1)c1ccc(Sc2ccccc2Cl)c([N+](=O)[O-])c1 | 12% | -45%[inhibitor] | 0.5 | 0.3 | 3 | 0.7%
O=C(COC(=O)c1ccc(S(=O)(=O)N2CCCC2)cc1)NCCc1ccc(F)cc1 | -14% | ? | -0.6 | nt | 1 | 0.4%
CCN(CC)C(=O)N1CCN(S(=O)(=O)c2c(C)cc(C)cc2C)CC1 | -13% | -20% | 0.1 | 1.2 | -15 | nt
COC(C/C=C\[C@H](O)[C@H](C)OCc1ccccc1)OC | 11% | -7% | -0.3 | nt | -6 | -1.2%
O=C(CCN1C(=O)/C(=C/c2cccs2)SC1=S)Nc1ccc(C(=O)O)c(O)c1 | 3% | ? | 3.2 | nt | -13 | 1.5%
O=C(N/N=C/c1ccc(Cl)cc1)c1sccc1OCc1ccc(F)cc1 | 13% | 26% | 0.0 | 2.5 | 6 | -4.8%
Cc1nn(-c2ccccc2)c2c1C(c1ccc([N+](=O)[O-])cc1)N1C(=N2)C(=O)Nc2ccccc21 (configuration not stated) | -1% | -50%[inhibitor] | 1.8 | -2.9 | 1 | -1.1%
O=c1ccc(Cc2ccc(Cl)cc2)n[nH]1 | 6% | ? | -0.2 | 5.2 | 28 | nt
CSc1ccccc1OCc1cc(C(=O)NCCC2=CCCCC2)no1 | 2% | -2%[15.4 µM] | -0.1 | -2.0 | 8 | -7.5%
Cc1cc(C)nc(NC(=O)c2cccs2)c1 | 2% | -26% | nt | -3.5 | nt | -1.9%
COCCNC(=O)NC12CC3(C)CC(C)(CC(C)(C3)C1)C2 | 1% | 18% | 0.0 | 0.4 | 14 | nt
CC1CN(C(=O)CN2C(=O)NC3(CCCCCCC3)C2=O)CC(C)O1 (configuration not stated) | 8% | -10% | 0.0 | 1.1 | 11 | -1.0%
C=CCc1cccc(C=Nc2cccn3cc(-c4ccccc4)nc23)c1O | ? | 26% | 0.0 | -2.5 | -21 | nt
O=C(CCc1nc(-c2ccccc2)c(-c2ccccc2)o1)OCc1ccc(Cl)cc1 | -3% | 34% | 3.1 | 4.7 | -8 | 32µM*
COc1cccc(-c2nc3n(n2)CCc2ccccc2-3)c1 | nt | 6% | -0.6 | nt | -4 | -28%
CCOc1ccc(N(Cc2cc3cc(OC)ccc3[nH]c2=O)C(=O)C2CCCO2)cc1 (configuration not stated) | -10% | 0% | 1.0 | 0.0 | 10 | ?
CC(=O)C1=CCC(c2ccccc2Cl)N(S(=O)(=O)c2ccc(C)cc2)C1 (configuration not stated) | nt | nt | -0.1 | nt | 0 | -1.8%
CCOC(=O)C1=C(O)/C(=C\c2ccc(CNS(=O)(=O)c3ccc(Br)cc3)o2)N=C1C | ? | -11% | 0.6 | ? | 4 | -21%
CCCCCCCCNS(=O)(=O)CCNCc1ccccc1OC | -5% | nt | 2.0 | nt | 2 | -1.0%

Looked up one by one from the list above (two):
SMILES | gsp antagonist | gsp ag | TRPML1 agonist | Menin MLL FP FL | TRPML1 inh | ClpP mod
CSc1ccccc1OCc1cc(C(=O)NCCC2=CCCCC2)no1 | 2% | -2%[15.4 µM] | -0.1 | -2.0 | 8 | -7.5%
O=C(CCN1C(=O)/C(=C/c2cccs2)SC1=S)Nc1ccc(C(=O)O)c(O)c1 | 3% | ? | 3.2 | nt | -13 | 1.5%

The results go on.
SMILES | gsp antagonist | gsp ag | TRPML1 agonist | Menin MLL FP FL | TRPML1 inh | ClpP mod
COc1ccccc1S(=O)(=O)N(C)C[C@@H]1OCc2cnnn2CCCC(=O)N([C@H](C)CO)C[C@H]1C | nt | -1% | -0.1 | nt | -16 | 0.6%
Cn1c(=O)oc2cc(S(=O)(=O)NC3CCN(Cc4ccccc4)CC3)ccc21 | 11% | -5% | -0.4 | 3.7 | -10 | 2.0%
CCOC(=O)c1cccc(NC(=O)c2ccc3c(c2)nnn3CC)c1 | nt | nt | 0.6 | nt | 5 | 1.2%
CN(CCc1ccccn1)C(=O)CCC1CCCN(C(=O)c2ccc3c(c2)OCCO3)C1 (configuration not stated) | -5% | ? | -0.5 | 0.4 | 9 | nt
CC(C)C(OC(=O)Cn1nnc2ccccc21)C(=O)NC1CCCC1 (configuration not stated) | 3% | -36%[inhibitor] | -0.3 | 2.6 | 5 | nt
COc1ccc(NC(=O)C2CC(=O)OC23CCCCC3)cc1 (configuration not stated) | 2% | -52%[inhibitor] | 0.3 | 1.9 | -8 | -0.7%
COc1ccc(NC(C)=O)cc1CNC(=O)COc1c(C)c(C)cc(C)c1C | -16% | 12% | -0.2 | 3.8 | -19 | -14%
O=C(c1ccc(Br)c(S(=O)(=O)N2CCOCC2)c1)N1CCN(C/C=C/c2ccccc2)CC1 | -28% | 13% | 0.5 | nt | 6 | -1.6%
Cc1ccc(NC(=O)c2ccc(-n3c(C)nnc3C)cc2)cc1F | nt | nt | -0.5 | nt | 0 | -2.0%
COc1ccc(N/N=C(/C#N)S(=O)(=O)c2nsc(C)c2C#N)cc1 | -21% | 17% | -0.2 | 4.1 | -10 | -3.0%
COCc1nnc(NC(=O)c2ccc(S(=O)(=O)N3CCCCCC3)cc2)o1 | -8% | -68%[inhibitor] | -0.5 | -1.8 | 11 | 0.0%
Cc1ccc(C)c(S(=O)(=O)NCc2ccc(C(=O)N3CCN(c4ccccc4)CC3)cc2)c1 | -15% | -1%[15.4 µM] | 1.3 | nt | -4 | ?
O=C(O)c1ccc(Cn2ccc3ccccc32)o1 | 5% | -11% | nt | 2.6 | nt | -2.0%
COc1cccc(C(C(=O)NC2CCCC2)N(Cc2ccc(C)cc2)C(=O)c2ccco2)c1OC (configuration not stated) | -3% | 0% | 1.7 | 5.0 | 27 | -1.8%
CCOC(=O)c1c(-c2ccc(F)cc2)csc1NC(=O)C1CC=CCC1C(=O)O (configuration not stated) | -21% | 25% | -0.5 | 6.2 | -10 | nt

Bioassay records deposited in PubChem BioAssay by National Center for Advancing Translational Sciences (NCATS).

Hits appear at their usual frequency; 2.1% or so of the library scored in one or more.
